# FGF22 binding: FGF22 (human) thermal shift binding; 340,000 compounds, 1.5% hits; calls only at 9.99 µM; recombinant FGF22 thermal shift, SYPRO orange fluorescence; percent of sucrose octasulfate shift, DMSO zero; Q9HCT0;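 active = melting point raised past a set limit in the mean and every replicate; three in four hits are not shown here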
# Target sequence (Q9HCT0 whole entry, looked up): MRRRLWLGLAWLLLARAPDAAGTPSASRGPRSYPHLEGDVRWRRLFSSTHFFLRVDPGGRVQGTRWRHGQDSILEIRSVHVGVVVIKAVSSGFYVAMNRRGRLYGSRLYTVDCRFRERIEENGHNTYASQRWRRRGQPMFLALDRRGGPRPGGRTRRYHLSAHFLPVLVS
# Ecoli rRNA inh: inhibitors of bacterial rRNA selective over humanized ribosomes. E. coli WT GFP vs humanized-ribosome RFP mutants, fluorescence, 24 h; stronger effect = lower value; DMSO median 0, no signal -100. GFP signal change (wild-type ribosome), % (concentration not given with the values). 350,000 compounds, 1.6% hits;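 active = significant combined selectivity score with lowered wild-type GFP, culture density cut under 30%, mutant RFP and density less affected; inactive = any of these conditions unmet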; note: one replicate is shown; some compounds called inactive have numbers as strong as hits
# AF4-AF9 inh: blocks AF4 peptide binding to human AF9. inhibition, % at 10 µM. P42568. AID 651704. AlphaScreen, biotin-AF4 peptide binding to FLAG-AF9. 350,000 compounds, 0.47% hits;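 active = every replicate reaching a set inhibition limit, whatever the replicate mean, cut at about 25% in these data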;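 note: 0% = plate neutral control median and 100% = total signal loss; the record names both 10 and 1 µM as test concentration; the first replicate is given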
# Target sequence (P42568 whole entry, looked up): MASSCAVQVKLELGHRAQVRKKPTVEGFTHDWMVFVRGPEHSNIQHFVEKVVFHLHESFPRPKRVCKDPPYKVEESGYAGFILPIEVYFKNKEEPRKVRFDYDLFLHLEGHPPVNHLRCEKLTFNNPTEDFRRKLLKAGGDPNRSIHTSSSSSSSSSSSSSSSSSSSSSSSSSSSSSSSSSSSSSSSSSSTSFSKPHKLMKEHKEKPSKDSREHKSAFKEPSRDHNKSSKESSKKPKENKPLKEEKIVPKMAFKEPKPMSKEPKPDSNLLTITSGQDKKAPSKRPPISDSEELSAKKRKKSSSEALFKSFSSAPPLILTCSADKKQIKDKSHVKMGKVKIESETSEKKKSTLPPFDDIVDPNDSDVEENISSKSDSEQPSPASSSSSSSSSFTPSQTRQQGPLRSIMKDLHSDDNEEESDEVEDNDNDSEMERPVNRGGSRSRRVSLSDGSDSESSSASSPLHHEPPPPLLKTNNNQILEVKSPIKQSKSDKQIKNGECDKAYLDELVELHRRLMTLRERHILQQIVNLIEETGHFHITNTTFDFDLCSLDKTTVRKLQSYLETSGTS
# Ecoli rRNA inh OD600: recorded beside Ecoli rRNA inh, whose call it bears; OD600 change, %; measured here: OD600 growth;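 optical density of the mix in the first replicate; 0 = DMSO median and -100 = no signal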
# Ecoli rRNA inh RFP: also measured in Ecoli rRNA inh; calls as there; RFP signal change, %; measured here: RFP humanized mutant strains;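 first replicate; 0 = DMSO median and -100 = no signal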
# An asterisk follows results filed as active; i = inactive; · = no result given; + = active, no number; & = joins results of further samples. These rows are one share of the data (hit frequency here may not be typical).
SMILES,FGF22 binding,Ecoli rRNA inh,Ecoli rRNA inh OD600,Ecoli rRNA inh RFP,AF4-AF9 inh
C[C@@H]1CN([C@H](C)CO)C(=O)c2cccc(NC(=O)C3CCCCC3)c2O[C@@H]1CN(C)Cc1ccc2c(c1)OCO2,i,3,5,-2.2,0.5
O=C(Nc1ccc2c(c1)OCO2)N[C@H]1C=C[C@@H](CC(=O)N2CCN(c3ccccc3)CC2)O[C@H]1CO,i,-2,1,-0.5,6.1
COc1ccc2c3c(n(C)c2c1)[C@H](CO)N(C)CC31CCN(CC2CC2)CC1,i,4,15,-3.2,0.8
C[C@@H]1CCCCO[C@@H](CN(C)S(=O)(=O)c2cccs2)[C@@H](C)CN([C@H](C)CO)C(=O)c2cc(NC(=O)c3ccncc3)ccc2O1,i,4,-4,-0.3,-2.5
O=C([C@@H]1[C@@H](CO)[C@@H]2Cn3c(cccc3=O)[C@@H]2N1Cc1cocn1)N1CCC(Cc2ccccc2)CC1,i,-3,-3,1.6,-12
O=C(Nc1cc(F)ccc1F)N[C@H]1CC[C@@H](CCNC(=O)c2cnccn2)O[C@H]1CO,i,0,-6,-3.8,-2.5
C/C=C/c1ccc([C@@H]2[C@@H](CO)N(C(=O)CC)C23CN(S(C)(=O)=O)C3)cc1,i,5,8,-1.1,-0.5
C[C@H](CO)N1C[C@H](C)[C@H](CN(C)Cc2ccc(-c3ccccc3)cc2)Oc2ccc(NS(=O)(=O)c3ccc(F)cc3)cc2C1=O,i,3,-11,7.4,3.0
C[C@H](CO)N1C[C@H](C)[C@H](CN(C)CC2CCCCC2)OCCCC[C@H](C)Oc2ccc(NC(=O)Nc3ccc(C(F)(F)F)cc3)cc2C1=O,i,-5,10,-4.3,-2.8
O=C(C[C@@H]1C=C[C@H](NC(=O)c2ccncc2)[C@H](CO)O1)Nc1ccc(-c2ccccc2)cc1,i,-8,6,0.2,0.2
CN1OC[C@@H]2CN(Cc3ccccc3)[C@H](c3ccc(N4CCCCC4)cc3)C[C@@H]21,i,-34,-64,8.3,28*
O=C(C[C@H]1CC[C@H](NC(=O)c2ccc(F)cc2)[C@@H](CO)O1)NCCc1ccccc1,i,0,-4,2.5,-0.5
COc1cc(-c2cc3nc(NCCOc4ccccc4)ccn3n2)cc(OC)c1OC,i,-17,-36,7.6,-0.3
COc1ccc(S(=O)(=O)N(C)C[C@H]2OCCCC[C@H](C)Oc3ccc(NC(=O)Nc4ccc(C(F)(F)F)cc4)cc3C(=O)N([C@H](C)CO)C[C@H]2C)cc1,i,i,·,·,-9.5
CCCC#Cc1ccc2c(c1)O[C@@H](CN(C)C(=O)c1ccccc1)[C@H](C)CN([C@@H](C)CO)S2(=O)=O,i,-25,-55,19,3.1
C[C@H]1CN([C@@H](C)CO)C(=O)c2cc(NC(=O)CCN3CCOCC3)ccc2O[C@H]1CN(C)C(=O)Nc1cccc2ccccc12,i,1,8,3.5,-2.0
Cc1oc(-c2ccc(F)cc2F)nc1CN1CCN(C(=O)c2ccco2)CC1,i,-1,-3,0.6,1.1
CO[C@@H]1CN(C)C(=O)c2cc(NC(=O)c3ccccc3)ccc2OC[C@@H](C)N(C(=O)CN(C)C)C[C@@H]1C,i,2,5,-0.8,-0.5
C[C@@H]1CN([C@@H](C)CO)C(=O)c2cc(-c3cccc(C(=O)N(C)C)c3)cnc2O[C@@H]1CN(C)S(=O)(=O)c1ccccc1,i,2,4,-1.3,-5.8
COc1ccc(C(=O)NCc2ccc(F)cc2)cc1S(=O)(=O)N1CCCC1,i,-3,0,-0.2,2.3
Cc1cccc(S(=O)(=O)N2CCCCN3[C@@H](CO)[C@@H](c4ccc(-c5cccnc5)cc4)[C@@H]3C2)c1,i,-8,-53,21,0.7
Cc1cc(Br)cn2c(Cc3ccccc3C(F)(F)F)c(-c3ccc(C#N)cc3)nc12,i,-9,-18,9.7,1.5
COCC#Cc1cnc2c(c1)C(=O)N([C@@H](C)CO)C[C@H](C)[C@H](CN(C)C(=O)c1ccc3c(c1)OCO3)O2,i,11&0,14&1,0.9&-1.4,3.8&-1.3&-2.2
C[C@H](NC(=O)[C@H]1[C@H](CO)[C@H]2Cn3c(ccc(-c4ccccc4)c3=O)[C@H]2N1C)c1ccccc1,i,-4,-6,1.1,-4.7
C[C@@H]1CN([C@H](C)CO)C(=O)Cc2cc(NC(=O)Nc3ccc(F)cc3)ccc2O[C@@H]1CN(C)Cc1ccc(C(F)(F)F)cc1,i,10,-3,2.1,1.5
# Going on with the list:
SMILES,FGF22 binding,Ecoli rRNA inh,Ecoli rRNA inh OD600,Ecoli rRNA inh RFP,AF4-AF9 inh
C[C@H](CO)N1C[C@H](C)[C@@H](CN(C)Cc2ccc(Cl)c(Cl)c2)Oc2c(NC(=O)CCCCCC(=O)Nc3ccccc3N)cccc2C1=O,i,-6,-6,1.5,-2.5
CC(C)C[C@@H](CNCC(=O)[C@H](Cc1ccccc1)NC(=O)c1[nH]cnc1C(=O)N[C@@H](C)CN)NC(=O)c1nc[nH]c1C(=O)N[C@@H](C)C(=O)O,i,5,16,11,1.9
CC(C)NC(=O)N(C)C[C@@H]1Oc2ccc(NC(=O)Cc3ccccc3)cc2CC(=O)N([C@H](C)CO)C[C@@H]1C,i,1,8,-0.6,-4.2
Cc1noc(C)c1-c1ccc(C(=O)NC2CCCCC2)c2occc12,i,-61,-79,-15,-1.7
CCNC(=O)C[C@@H]1C=C[C@H](NC(=O)C2CCOCC2)[C@H](CO)O1,i,4,5,-5.4,-1.6
C[C@@H]1CN([C@H](C)CO)C(=O)CCCn2cc(nn2)CO[C@@H]1CN(C)C(=O)Nc1ccc(C(F)(F)F)cc1,i,-3,-5,0.8,-0.9
CCCC#Cc1cnc2c(c1)C(=O)N([C@@H](C)CO)C[C@@H](C)[C@@H](CN(C)S(=O)(=O)c1cccc(OC)c1)O2,i,7,2,-0.2,0.3
C[C@H](CO)N1C[C@H](C)[C@H](CN(C)C(=O)C2CCC2)Oc2ncc(/C=C/c3ccccc3)cc2C1=O,i,-5,1,1.7,2.1
Cc1noc(C)c1NC(=O)N(C)C[C@H]1Oc2ccc(NC(=O)c3ccncc3)cc2CC(=O)N([C@@H](C)CO)C[C@H]1C,i,0,5,-1.0,-1.7
COc1ccc(NC(=O)Nc2ccc3c(c2)C(=O)N([C@H](C)CO)C[C@H](C)[C@H](CN(C)C(=O)c2ccccc2)OCCCC[C@H](C)O3)cc1,i,-1,-7,5.3,-4.9
NC(=O)C1(Nc2ccccc2Cl)CCCC1,i,2,2,-1.0,1.1
COCC#Cc1ccc2c(c1)O[C@H](CN(C)C(=O)c1ccccc1)[C@@H](C)CN([C@@H](C)CO)S2(=O)=O,+,-2,-11,0.9,-0.7
COc1ccccc1C#Cc1cnc2c(c1)C(=O)N([C@H](C)CO)C[C@@H](C)[C@@H](CN(C)C)O2,i,4,-1,1.6,5.4
O=C(O)C(=Cc1ccc([N+](=O)[O-])cc1)c1cccc(Cl)c1,i,-10,0,-6.9,-0.1
O=C(NCC[C@@H]1CC[C@H](NS(=O)(=O)c2ccccc2)[C@H](CO)O1)c1cc(Cl)cc(Cl)c1,i,-5,-5,3.1,0.4
O=C(c1cc2cc(Cl)ccc2o1)N1CCCCCC1,i,-21,-26,-5.6,-2.3
CO[C@H]1CN(C)C(=O)c2cc(NS(C)(=O)=O)ccc2OC[C@@H](C)N(C(=O)C2CCCC2)C[C@H]1C,i,4,5,-3.0,0.1
O=C(C[C@H]1C=C[C@H](NC(=O)CCN2CCCCC2)[C@H](CO)O1)NCc1ccc(Cl)c(Cl)c1,i,0,0,2.6,-0.8
COc1ccc(CCNC(=O)Nc2ccc3c(c2)c(=O)n(C)n3Cc2ccc(Cl)cc2)cc1OC,i,0,-8,-0.4,-1.8
CN1C[C@@H]2[C@H](c3ccccc31)[C@@H](CO)N2C(=O)Nc1cccc(F)c1,i,-4,-10,2.0,-0.8
O=C(NC1CCCCC1)N[C@@H]1CC[C@@H](CC(=O)N2CCOCC2)O[C@@H]1CO,i,-10,-8,-1.5,-1.3
O=C([C@@H]1[C@@H](CO)[C@@H]2Cn3c(ccc(C4=CCCC4)c3=O)[C@H]1N2Cc1nccs1)N1CCCCC1,i,1,3,-1.3,-8.3
COc1cccc(-c2cn(CC[C@H]3CC[C@H](NC(C)=O)[C@@H](CO)O3)nn2)c1,i,2,1,-2.6,-0.6
C[C@H](CO)N1C[C@H](C)[C@H](CN(C)C(=O)Nc2ccc(F)cc2)Oc2ccc(NC(=O)C3CCCCC3)cc2CC1=O,i,2,0,-0.5,-2.3
COc1cccc(CNC(=O)C[C@@H]2CC[C@H](NC(=O)C3CCC3)[C@H](CO)O2)c1,i,3,8,0.8,0.8
# Other structures.
SMILES,FGF22 binding,Ecoli rRNA inh,Ecoli rRNA inh OD600,Ecoli rRNA inh RFP,AF4-AF9 inh
O=C(Nc1cccc(Cl)c1)N[C@H]1CC[C@H](CCNC(=O)C2CCCC2)O[C@@H]1CO,i,-4,2,-2.6,1.5
COc1ccccc1CNC(=O)C[C@H]1C[C@@H]2c3cc(NC(=O)c4ccc5c(c4)OCO5)ccc3O[C@@H]2[C@@H](CO)O1,i,-10,-10,4.9,0.5
O=C1CCSc2c1ccc1ccccc21,i,-21,-47,-3.1,-0.8
C[C@@H]1CN([C@@H](C)CO)C(=O)c2cc(-c3ccc(C(=O)N(C)C)cc3)cnc2O[C@@H]1CN(C)C(=O)c1ccncc1,i,3,9,-4.7,-2.0
COc1ccc(CCN(C)S(=O)(=O)c2cn(C)c(=O)n(C)c2=O)cc1OC,i,10,11,-0.6,-1.8
CO[C@H]1CN(C)C(=O)c2cc(NC(=O)C3CCC3)ccc2OC[C@H](C)N(Cc2ccncc2)C[C@@H]1C,i,1,-1,-0.1,-3.8
Clc1ccc2nc(C(Cl)(Cl)Cl)[nH]c2c1,i,18,19,-0.4,4.3
C[C@@H]1CCCCO[C@H](CN(C)C(=O)CCCN(C)C)[C@H](C)CN([C@@H](C)CO)C(=O)c2cc(NS(=O)(=O)c3ccc(Cl)cc3)ccc2O1,i,2,2,1.3,0.1
CN(C)CCCNC(=O)C[C@H]1CC[C@H](NC(=O)Cc2cccnc2)[C@@H](CO)O1,i,1,-1,0.2,-2.2
CN(C)C(=O)C[C@H]1CC[C@@H]2[C@@H](COc3ccc(NC(=O)C4CCCCC4)cc3C(=O)N2C)O1,i,0,-4,-0.8,-3.6
Cc1cc(C)c(S(=O)(=O)N2CCN(C(=O)C3CC3)CC2)c(C)c1,i,-3,-2,-3.5,0.0
COc1ccc(NC(=O)Nc2ccc3c(c2)C(=O)N([C@H](C)CO)C[C@@H](C)[C@H](CN(C)S(=O)(=O)c2ccc(C)cc2)OCCCC[C@H](C)O3)cc1,i,0,1,-0.6,-6.8
CC(=O)Nc1ccc(CNc2nc(NCC3CC3)nc3ccsc23)cc1,i,-1,-3,2.9,1.9
CCOc1ccc(-c2noc([C@@H]3O[C@H](CO)[C@@H](O)[C@H]3O)n2)cc1,i,8,17,3.9,-1.9
C[C@@H]1CCCCO[C@H](CN(C)C(=O)Nc2ccc(C(F)(F)F)cc2)[C@H](C)CN([C@@H](C)CO)C(=O)c2cc(NS(=O)(=O)c3cccs3)ccc2O1,i,0,0,-0.5,-1.1
CCCC(=O)Nc1ccc2c(c1)OC[C@@H](C)N(Cc1ccccc1C(=O)O)C[C@@H](C)[C@H](OC)CN(C)C2=O,i,3,9,-3.3,-0.6
C[C@H]1CN([C@@H](C)CO)C(=O)c2cc(NC(=O)Nc3ccc4c(c3)OCO4)ccc2O[C@@H]1CN(C)Cc1ccc(Cl)c(Cl)c1,i,3,-8,0.5,5.5
C[C@@H]1CN([C@@H](C)CO)C(=O)Cc2cc(NC(=O)C3CCCCC3)ccc2O[C@H]1CN(C)S(=O)(=O)c1cn(C)cn1,i,1,7,1.1,-2.1
Cc1noc(C)c1S(=O)(=O)N(C)C[C@H]1Oc2ccc(NC(=O)C3CCCCC3)cc2CC(=O)N([C@@H](C)CO)C[C@H]1C,i,-4,2,1.4,-0.2

# In another format: 4 of the compounds above.
compound: C[C@@H]1CN([C@@H](C)CO)C(=O)c2cc(-c3ccc(C(=O)N(C)C)cc3)cnc2O[C@@H]1CN(C)C(=O)c1ccncc1
  FGF22 binding: i | Ecoli rRNA inh: 3 | Ecoli rRNA inh OD600: 9 | Ecoli rRNA inh RFP: -4.7 | AF4-AF9 inh: -2.0

compound: Cc1cc(C)c(S(=O)(=O)N2CCN(C(=O)C3CC3)CC2)c(C)c1
  FGF22 binding: i | Ecoli rRNA inh: -3 | Ecoli rRNA inh OD600: -2 | Ecoli rRNA inh RFP: -3.5 | AF4-AF9 inh: 0.0

compound: COc1ccc(NC(=O)Nc2ccc3c(c2)C(=O)N([C@H](C)CO)C[C@@H](C)[C@H](CN(C)S(=O)(=O)c2ccc(C)cc2)OCCCC[C@H](C)O3)cc1
  FGF22 binding: i | Ecoli rRNA inh: 0 | Ecoli rRNA inh OD600: 1 | Ecoli rRNA inh RFP: -0.6 | AF4-AF9 inh: -6.8

compound: CO[C@H]1CN(C)C(=O)c2cc(NC(=O)C3CCC3)ccc2OC[C@H](C)N(Cc2ccncc2)C[C@@H]1C
  FGF22 binding: i | Ecoli rRNA inh: 1 | Ecoli rRNA inh OD600: -1 | Ecoli rRNA inh RFP: -0.1 | AF4-AF9 inh: -3.8
